Vaccinia stage: Vaccinia orthopox stage-specific inhibition. activity change (mCherry), % (test concentration not listed). actives 0.01% (n = 89,000). AID 1053133. Vaccinia-infected cells, mCherry/Venus stage reporter fluorescence; hits give low values; some inactives read as strong as hits;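 active = mCherry past -33% and 40 or more points under the early reporter, replicates agreeing; inconclusive = past -33% without that gap or agreement; tested in A549 cells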;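 note: scaled between vehicle wells and reference inhibitor wells; 23 nL library stock went into each well; one replicate is shown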
Vaccinia stage Venus: also measured in Vaccinia stage; calls as there; activity change (Venus), %; measured here: Venus reporter, other viral stage;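 negative = less Venus signal; first of two replicates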
Starred values were filed as active, the others as inactive; ? = inconclusive; / = not tested or not shown; & = joins results of further samples. Some of the compounds tested (hit frequency here may not be typical).

SMILES | Vaccinia stage | Vaccinia stage Venus
C[C@@H]1CCCCO[C@@H](CN(C)S(=O)(=O)c2ccccc2)[C@H](C)CN([C@@H](C)CO)C(=O)c2cc(NC(=O)Cc3ccccc3)ccc2O1 | ? | /
C[C@H](CO)N1C[C@H](C)[C@@H](CN(C)Cc2ccccc2)Oc2ccc(NC(=O)Nc3ccc4c(c3)OCO4)cc2CC1=O | ? | /
O=C(C[C@@H]1CC[C@H](NC(=O)NC2CCCCC2)[C@@H](CO)O1)NCc1ccccc1 | 9 | 13
COCC#Cc1cnc2c(c1)C(=O)N([C@@H](C)CO)C[C@H](C)[C@@H](CN(C)C(=O)C1CCC1)O2 | 9 | 5
COCC(=O)N1CCCCN2[C@H](C1)[C@@H](c1ccc(C#Cc3ccc(OC)cc3)cc1)[C@@H]2CO | ? | /
C[C@@H]1CCCCO[C@H](CN(C)Cc2ccc(C(F)(F)F)cc2)[C@@H](C)CN([C@H](C)CO)C(=O)c2cc(NS(=O)(=O)c3cn(C)cn3)ccc2O1 | 10 | 0
C[C@@H]1CN([C@@H](C)CO)C(=O)c2cc(NS(C)(=O)=O)ccc2O[C@@H](C)CCCCO[C@H]1CN(C)Cc1ccc(C(=O)O)cc1 | 18 | 17
CC(C)NC(=O)Nc1ccc2c(c1)C(=O)N([C@@H](C)CO)C[C@H](C)[C@H](CN(C)Cc1ccccc1)OCCCC[C@H](C)O2 | -25 | -11

Given with two lines to a compound: entries from further up
Each structure is followed by: Vaccinia stage | Vaccinia stage Venus
C[C@H](CO)N1C[C@H](C)[C@@H](CN(C)Cc2ccccc2)Oc2ccc(NC(=O)Nc3ccc4c(c3)OCO4)cc2CC1=O
    ? | /
O=C(C[C@@H]1CC[C@H](NC(=O)NC2CCCCC2)[C@@H](CO)O1)NCc1ccccc1
    9 | 13
COCC#Cc1cnc2c(c1)C(=O)N([C@@H](C)CO)C[C@H](C)[C@@H](CN(C)C(=O)C1CCC1)O2
    9 | 5
COCC(=O)N1CCCCN2[C@H](C1)[C@@H](c1ccc(C#Cc3ccc(OC)cc3)cc1)[C@@H]2CO
    ? | /
C[C@@H]1CCCCO[C@H](CN(C)Cc2ccc(C(F)(F)F)cc2)[C@@H](C)CN([C@H](C)CO)C(=O)c2cc(NS(=O)(=O)c3cn(C)cn3)ccc2O1
    10 | 0

(continued)
SMILES | Vaccinia stage | Vaccinia stage Venus
O=C(NC1Cc2ccccc2C1)[C@@H]1[C@@H](CO)[C@@H]2Cn3c(cccc3=O)[C@@H]2N1C(=O)C1CC1 | 19 | 14
C[C@@H]1CN([C@H](C)CO)C(=O)c2cc(NC(=O)Nc3ccccc3)ccc2O[C@H]1CN(C)S(=O)(=O)c1ccc(F)cc1 | 1 | 6
COc1ccc2c3c([nH]c2c1)[C@@H](CO)N(Cc1cccc(F)c1)CC31CN(CC2CC2)C1 | -7 | -1
COc1ccc(CN2C[C@@H](C)[C@@H](OC)CN(C)C(=O)c3cc(NC(=O)C4CC4)ccc3OC[C@H]2C)cc1 | 1 | 10
CCC(=O)Nc1ccc2c(c1)C(=O)N(C)C[C@H](OC)[C@@H](C)CN(Cc1cccc(F)c1)[C@H](C)CO2 | -11 | -1
C[C@@H]1CN([C@@H](C)CO)C(=O)CCCn2cc(nn2)CO[C@@H]1CN(C)S(=O)(=O)c1ccc(-n2cccn2)cc1 | 0 | -7
CNC(=O)C[C@@H]1CC[C@@H]2[C@H](COc3ccc(NC(=O)C4CCCCC4)cc3C(=O)N2C)O1 | 8 | -1
C[C@H]1CN([C@@H](C)CO)C(=O)Cc2cc(NC(=O)Nc3ccc(F)cc3)ccc2O[C@@H]1CN(C)S(C)(=O)=O | 11 | 14
C=CCN1C(=O)[C@@]2(O[C@@H](CCO)[C@H]([Si](C)(C)c3ccc(OC)cc3)[C@H]2C)c2cc(N3CCC3=O)ccc21 | ? | /
O=C(Cc1ccccn1)NCC[C@H]1CC[C@@H](NC(=O)Nc2ccc(Cl)cc2)[C@H](CO)O1 | 7 | 4
CO[C@H]1CN(C)C(=O)c2cc(NC(C)=O)ccc2OC[C@H](C)N(Cc2ccccc2C(=O)O)C[C@@H]1C | 12 | 2
C[C@H](CO)N1C[C@H](C)[C@@H](CN(C)Cc2ccccc2)Oc2c(NS(C)(=O)=O)cccc2C1=O | 3&4 | -6&3
C[C@H](CO)N1C[C@H](C)[C@H](CN(C)Cc2ccccc2C(=O)O)OCc2cnnn2CCCC1=O | -4 | -2
CN(C)CC(=O)N1[C@H](CO)[C@H](c2ccc(/C=C/c3ccccc3)cc2)[C@@H]1C#N | -8 | -5
CO[C@H]1CN(C)C(=O)c2ccc(NS(=O)(=O)c3cn(C)cn3)cc2OC[C@@H](C)N(CCC(F)(F)F)C[C@H]1C | 16 | 11
C[C@@H]1CN([C@H](C)CO)C(=O)Cc2cc(NC(=O)CCC(F)(F)F)ccc2O[C@@H]1CN(C)Cc1ccc(C(=O)O)cc1 | 24 | 6
O=C(N[C@H]1CC[C@H](CC(=O)N2CCN(c3ccccc3)CC2)O[C@@H]1CO)c1ccccc1 | -2 | -1
C[C@@H]1CN([C@@H](C)CO)C(=O)Cc2cc(NC(=O)Cn3cnnn3)ccc2O[C@@H]1CN(C)C(=O)Nc1ccccc1 | 23 | 9
C[C@H]1CN([C@@H](C)CO)C(=O)c2cc(NC(=O)C3CCCCC3)ccc2O[C@@H]1CN(C)S(C)(=O)=O | 5 | 10
CCCNC(=O)N1C[C@H](O)COC[C@H]2O[C@H](CC(=O)NCc3ccc(Cl)c(Cl)c3)CC[C@@H]21 | 0 | -10
CCc1cnc(N2[C@H](C#N)[C@@H](c3ccc(-c4cccc(F)c4)cc3)[C@@H]2CO)s1 | -12 | -4
COc1ccc(NC(=O)Nc2cccc3c2O[C@@H](CN(C)Cc2ccc(C(F)(F)F)cc2)[C@H](C)CN([C@@H](C)CO)C3=O)cc1 | -5 | -4
CC=Cc1ccc2n(c1=O)C[C@H]1[C@H](CO)[C@@H](C(=O)NCc3ccccc3F)N[C@@H]21 (mixture of isomers) | 12 | 11
CC(C)NC(=O)Nc1ccc2c(c1)CC(=O)N([C@@H](C)CO)C[C@@H](C)[C@H](CN(C)Cc1ccc(C(=O)O)cc1)O2 | 18 | 20
COCC(=O)N(C)C[C@@H]1Oc2cc(-c3ccc(C)cc3)ccc2S(=O)(=O)N([C@@H](C)CO)C[C@H]1C | -7 | -4
C[C@H]1CN([C@@H](C)CO)C(=O)c2cc(C#CCC3CCCC3)cnc2O[C@H]1CN(C)C(=O)c1cnccn1 | 9 | 6
C[C@@H]1CN([C@H](C)CO)C(=O)Cc2cc(NS(=O)(=O)c3ccc(F)cc3)ccc2O[C@H]1CN(C)S(=O)(=O)c1cn(C)cn1 | 14 | 11
C[C@H](CO)N1C[C@H](C)[C@H](CN(C)S(C)(=O)=O)Oc2cc(C#CCN(C)C)ccc2S1(=O)=O | -2 | 1
CCCN1[C@@H]2c3ccc(-c4ccccc4OC)c(=O)n3C[C@@H]2[C@@H](CO)[C@@H]1C(=O)Nc1nccs1 | -3 | -1
OC[C@H]1[C@H](c2ccc(Br)cc2)[C@@H]2CN(Cc3ccccn3)CCCCN12 | 27 | 23
COc1ccc(NC(=O)N(C)C[C@@H]2OCCCC[C@H](C)Oc3ccc(NC(=O)CCCN(C)C)cc3C(=O)N([C@H](C)CO)C[C@H]2C)cc1 | 14 | 11
O=C(C1=C[C@@H](c2ccc(C(F)(F)F)cc2)C[C@@H](OCCCCO)O1)N1CCN(Cc2ccc3c(c2)OCO3)CC1 | -22 | -21
CCCNC(=O)N1[C@H](CO)[C@@H](c2ccccc2)[C@H]1CNC(C)=O | 6 | 14
COc1ccc(NC(=O)Nc2ccc3c(c2)CC(=O)N([C@@H](C)CO)C[C@H](C)[C@H](CN(C)Cc2ccc(-c4ccccc4)cc2)O3)cc1 | ? | /
O=C(NCCN1CCCCC1)[C@@H]1[C@@H](CO)[C@@H]2Cn3c(cccc3=O)[C@@H]2N1Cc1ccccn1 | 20 | 13
COc1ccc(NC(=O)Nc2ccc3c(c2)C(=O)N([C@H](C)CO)C[C@@H](C)[C@H](CN(C)Cc2ccc(Cl)c(Cl)c2)OCCCC[C@@H](C)O3)cc1 | -22 | -17
COCC(=O)N1CC2(C1)CN(Cc1ccccn1)[C@H](CO)c1[nH]c3cc(OC)ccc3c12 | 24 | 33
CN(C)C(=O)[C@@H]1[C@@H](CO)[C@@H]2Cn3c(ccc(/C=C/c4ccccc4)c3=O)[C@@H]2N1C(=O)c1cnccn1 | -6 | 14
CCC(=O)N1CCC2(CC1)CN(C(=O)Cc1ccccc1)[C@@H](CO)c1c2c2ccc(OC)cc2n1C | -9 | -3
CO[C@@H]1CN(C)C(=O)c2cc(NC(=O)c3nc4ccccc4s3)ccc2OC[C@H](C)N(Cc2cccnc2)C[C@@H]1C | ? | /
O=C(Cc1ccccn1)N1CCCCN2[C@H](C1)[C@H](c1ccc(-c3ccc(F)cc3)cc1)[C@@H]2CO | -33 | -11
COc1ccc(S(=O)(=O)Nc2ccc3c(c2)C(=O)N([C@@H](C)CO)C[C@@H](C)[C@@H](CN(C)S(C)(=O)=O)OCCCC[C@@H](C)O3)cc1 | 13 | 5
COCC(=O)N1CC(=O)N2[C@H](C1)[C@H](c1ccc(Br)cc1)[C@@H]2CO | 20 | 0
CCCc1cn(CC[C@@H]2CC[C@H](NC(=O)C3CC3)[C@@H](CO)O2)nn1 | 10 | 11
C[C@H]1CN([C@@H](C)CO)S(=O)(=O)c2ccc(-c3ccc(C#N)cc3)cc2O[C@@H]1CN(C)Cc1cccc(F)c1 | ? | /
C[C@@H]1CN([C@@H](C)CO)C(=O)c2cc(C#Cc3cccnc3)cnc2O[C@@H]1CN(C)C | 9 | 6
CO[C@H]1CN(C)C(=O)c2ccc(NC(=O)Nc3cccc(F)c3)cc2OC[C@H](C)N(C(=O)Nc2c(C)noc2C)C[C@@H]1C | 20 | 16
C[C@H]1CN([C@@H](C)CO)S(=O)(=O)c2ccc(C#CCN(C)C)cc2O[C@@H]1CN(C)Cc1ccccn1 | -4 | -6
Cc1ccc(S(=O)(=O)N(C)C[C@@H]2Oc3c(NC(=O)Nc4ccc(C(F)(F)F)cc4)cccc3C(=O)N([C@@H](C)CO)C[C@H]2C)cc1 | -14 | -6
C[C@@H]1CN([C@H](C)CO)S(=O)(=O)c2ccc(C#CCN(C)C)cc2O[C@H]1CN(C)S(=O)(=O)c1cccc(F)c1 | -16 | -7
CCNC(=O)C[C@H]1CC[C@H](NC(=O)C2CC2)[C@H](CO)O1 | -3 | 8
COc1cccc(NC(=O)N(C)C[C@H]2OCc3cnnn3CCCC(=O)N([C@H](C)CO)C[C@H]2C)c1 | 13 | 11
CCN1[C@@H]2c3ccc(-c4ccc(F)cc4)c(=O)n3C[C@@H]2[C@@H](CO)[C@@H]1C(=O)Nc1ccccc1 | -4 | -3
CC=Cc1ccc2n(c1=O)C[C@@H]1[C@@H](CO)[C@H](C(=O)NCc3ccccc3)N(CCC(F)(F)F)[C@H]21 (mixture of isomers) | -1 | 6
C[C@H]1CN([C@@H](C)CO)C(=O)c2cc(-c3cccnc3)cnc2O[C@H]1CN(C)Cc1ccc(Oc2ccccc2)cc1 | ? | -18
CCNC(=O)C[C@H]1CC[C@@H]2[C@@H](COc3ccc(NC(=O)c4cccs4)cc3C(=O)N2C)O1 | 8 | 11

Further compounds follow:
SMILES | Vaccinia stage | Vaccinia stage Venus
COc1ccccc1-c1cnc2c(c1)C(=O)N([C@@H](C)CO)C[C@H](C)[C@@H](CN(C)CC1CCCC1)O2 | -20 | -9
CN(C)CC(=O)Nc1ccc2c(c1)[C@@H]1C[C@H](CC(=O)N(C)C)O[C@@H](CO)[C@@H]1O2 | 1 | 5
O=C(C[C@H]1CC[C@H](NC(=O)CN2CCOCC2)[C@@H](CO)O1)NC1CCC1 | 2 | 9
C[C@H](CO)N1C[C@H](C)[C@@H](CN(C)C)OCCCC[C@H](C)Oc2ccc(NC(=O)CCCN(C)C)cc2C1=O | 3 | 2
C[C@@H]1CN([C@H](C)CO)C(=O)c2cc(NS(=O)(=O)c3cccs3)ccc2O[C@@H]1CN(C)S(=O)(=O)c1ccc(F)cc1 | -7 | -6
C[C@H](CO)N1C[C@H](C)[C@@H](CN(C)C(=O)c2ccccc2F)Oc2ncc(-c3ccccc3)cc2C1=O | 7 | 15
Cc1ccc(S(=O)(=O)NCC[C@@H]2CC[C@@H](NS(=O)(=O)c3ccccc3Cl)[C@H](CO)O2)cc1 | -13 | -9
CC(=O)N(C)C[C@@H]1Oc2cc(C#CCC3CCCC3)ccc2S(=O)(=O)N([C@H](C)CO)C[C@H]1C | ? | /
Cc1ccc(S(=O)(=O)N(C)C[C@H]2Oc3ccc(NC(=O)NC4CCCCC4)cc3CC(=O)N([C@@H](C)CO)C[C@H]2C)cc1 | -14 | -8
CC(C)NC(=O)N[C@@H]1C=C[C@H](CC(=O)NCc2ccc(Oc3ccccc3)cc2)O[C@@H]1CO | -10 | 3
N#C[C@H]1[C@H](c2ccccc2-c2ccccc2F)[C@@H](CO)N1C(=O)c1cccc(F)c1 | -5 | -4
COc1ccccc1C#Cc1ccc([C@@H]2[C@@H](CO)N3CCCCN(S(C)(=O)=O)C[C@@H]23)cc1 | -15 | -9
COC(=O)C[C@H]1CC[C@H]2[C@H](COc3ccc(NC(=O)Nc4c(C)noc4C)cc3C(=O)N2C)O1 | 10 | 7
COc1ccc2c3c(n(C)c2c1)[C@H](CO)N(S(C)(=O)=O)CC31CN(C(=O)c2ccccn2)C1 | 4 | 2
C[C@H](CO)N1C[C@H](C)[C@H](CN(C)C(=O)Nc2ccccc2)Oc2ccc(NC(=O)Nc3ccccc3)cc2C1=O | 13 | 12
COc1ccc([Si](C)(C)[C@H]2[C@H](CCn3cc(CCO)nn3)O[C@@]3(C(=O)N(Cc4ccc(N5C(=O)c6cccc7cccc5c67)cc4)c4ccccc43)[C@@H]2C)cc1 | ? | /

High-throughput results from PubChem.
